Rango-impB inh: prevents formation of the Rango-importin beta complex; AID 540263; 0.031% of 340,000 active; Potency, µM (doses to about 92.2 µM), for inactives: at the top dose inhibition of complex formation; Rango CFP/YFP FRET sensor + importin beta, 45 min; active = rising FRET ratio curve, often small or poorly fitted; inconclusive = mostly compound fluorescence or quenching in the first reads; inactive = flat curves in all reads;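 also: potency is read from the fitted curve at half-maximal effect; 0% = DMSO wells and 100% = buffer wells lacking importin beta; nearly all actives have a fitted effect of over 15% in size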
Target sequence (Q14974 whole entry, looked up): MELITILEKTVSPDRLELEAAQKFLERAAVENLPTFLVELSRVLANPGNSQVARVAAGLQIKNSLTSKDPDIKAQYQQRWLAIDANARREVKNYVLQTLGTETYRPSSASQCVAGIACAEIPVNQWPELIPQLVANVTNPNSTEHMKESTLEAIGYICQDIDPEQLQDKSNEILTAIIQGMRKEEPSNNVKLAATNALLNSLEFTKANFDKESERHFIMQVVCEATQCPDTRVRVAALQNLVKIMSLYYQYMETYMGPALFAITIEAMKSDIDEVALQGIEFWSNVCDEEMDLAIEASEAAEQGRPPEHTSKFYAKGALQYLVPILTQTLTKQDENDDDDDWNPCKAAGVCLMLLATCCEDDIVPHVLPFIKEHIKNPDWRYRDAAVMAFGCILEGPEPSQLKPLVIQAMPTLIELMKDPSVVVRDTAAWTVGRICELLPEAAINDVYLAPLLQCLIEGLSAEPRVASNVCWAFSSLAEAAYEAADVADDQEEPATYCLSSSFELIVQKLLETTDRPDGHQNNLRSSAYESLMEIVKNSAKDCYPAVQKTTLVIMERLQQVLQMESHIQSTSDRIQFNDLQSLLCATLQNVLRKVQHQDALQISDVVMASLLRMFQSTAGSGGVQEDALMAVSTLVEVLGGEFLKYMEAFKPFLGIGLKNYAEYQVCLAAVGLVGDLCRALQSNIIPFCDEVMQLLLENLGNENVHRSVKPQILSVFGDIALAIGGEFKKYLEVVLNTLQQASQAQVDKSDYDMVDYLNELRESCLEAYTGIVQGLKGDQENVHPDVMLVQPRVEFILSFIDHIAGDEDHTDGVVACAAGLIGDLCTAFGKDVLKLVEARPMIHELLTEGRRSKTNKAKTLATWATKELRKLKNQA
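FRET biosensor (snurportin 1 IBB flanked by EYFP and cerulean), 50 nM, with compound 5 min, then 0.125 microM importin beta in PBS, 1 mM DTT, 0.02% Tween-20, 0.1% BSA. CFP/YFP ratio read after 45 min at room temperature; pre-read flags interference.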
GLA inh pH 4.5: alpha-galactosidase A (human) inhibition, pH 4.5; P06280; purified enzyme, 4-MU-alpha-Gal fluorescence, pH 4.5; activity change, negative = inhibition, % at 105 µM; 230,000 tested, under 10 active; AID 1467; inconclusive = small, poorly fitted or top-dose-only inhibition, or a rising curve; inactive = flat fitted curve, though single readings scatter; no compound was filed as active;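 also: 0% = full activity with enzyme and -100% = basal without enzyme; dose as in the result columns while the protocol names 77 µM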
miR-21 reporter: raises the signal of a miR-21 reporter | Potency, µM (top dose mostly 38.3 µM), inactives show top-dose reporter change, positive = more light | HeLa miR-21 FLuc reporter, luciferase, 48 h | 340,000 tested, under 10 active; active = well fitted rising curve with a large enough effect; inconclusive = small, poorly fitted or top-dose-only effect; inactive = no such curve, though single readings can be large or run the other way;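 also: % of control where 0% means no effect; miR-21 action dims this reporter so a rising signal means less miR-21 action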
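Compounds were titrated across several concentrations (up to approximately 40 uM) and incubated 48 hours with HeLa miR-21-FLuc reporter cells (miR-21 target sequence downstream of FLuc, endogenous miR-21). Readout was firefly luciferase luminescence after lytic detection reagent.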
Rango release inh: inhibition of RanGTP-driven Rango-importin beta dissociation; O95149+P62826; Biochemical FRET Rango-importin beta, RanGTP-induced dissociation; Potency, µM (top dose mostly 46.1 µM), without a hit: at the top dose activity change, negative = inhibition; 0.071% of 340,000 active; active means falling FRET ratio curve, often poorly fitted, with flat reads before Ran was added; inconclusive means other falling curves, or compound fluorescence or quenching; inactive means flat or rising ratio curve;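 also: potency is read from the fitted curve at half-maximal effect; % of control where 0% means no effect; nearly all actives have a fitted effect of over 45% in size; -100% = wells without RanGTP and RCC1; the record marks most hits as doubtful in a second field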
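Quantitative HTS using a FRET biosensor: 0.1 uM Rango, 0.25 uM importin beta, 0.6 uM Ran, 2 mM GTP, 0.2 uM RCC1 final, PBS with DTT, Tween-20 and BSA. Post-read taken 45 min after Ran addition.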
* hit, by the source's call; ? = inconclusive; . = not tested or not shown; & = joins results of further samples. A portion of the library; rates above refer to the full screens.

SMILES	Rango-impB inh	GLA inh pH 4.5	miR-21 reporter	Rango release inh
COCCCn1nnnc1SCC(=O)N1c2ccccc2CC1C (stereo not given)	2.3%	-10	0%	11%
CCOC(=O)CC1C(=O)NCCN1S(=O)(=O)c1ccc(NC(C)=O)cc1 (stereo not given)	-5.4%	.	-1%	3%
c1ccc(-c2nc3ccccn3c2-c2ccccc2)cc1	3.1%	.	.	0%
CCOc1cc(N2CCOCC2)c(OCC)cc1NC(=O)COC(=O)c1c(CC)noc1C	4.2%	.	.	6%
O=C1ON=C(c2ccccc2)/C1=C/c1ccc(O)cc1	?	.	-13%	-5%
COc1cc(C(C)=O)ccc1OC(C)C(=O)Nc1ccc(S(=O)(=O)N2CCCC2)cc1 (stereo not given)	2.4%	.	.	0%
Cc1ccc(S(=O)(=O)N2CCCC(C(=O)N(Cc3cccs3)C3CC3)C2)cc1 (stereo not given)	-2.3%	-4	21%	-1%
O=C(CC12CC3CC(CC(Br)(C3)C1)C2)Nc1nncs1	-0.3%	.	1%	1%
CCn1c(C)[n+](Cc2ccccc2)c2ccc(Cl)cc21	-0.5%	5	17%	-13%
O=C1/C(=C/C=C/c2ccco2)SC(=S)N1NS(=O)(=O)c1ccccc1	?	-13	0%	-24%
CCCCN(C(=O)CC(c1ccccc1)c1ccccc1)c1c(N)n(CCC)c(=O)[nH]c1=O	0.2%	-9	-3%	-9%
c1ccc(Cn2nnnc2C(c2cccs2)N2CCOCC2)cc1 (stereo not given)	-0.1%	0	-6%	-5%
O=C(CCNS(=O)(=O)c1ccccc1C(F)(F)F)N1CCN(C(c2ccccc2)c2ccccc2)CC1	0.2%	.	.	2%
Nc1ccn(C2CCCCO2)c(=O)n1 (stereo not given)	1.4%	.	.	5%
O=C(O)c1cc(=O)cc(C(=O)O)[nH]1	3.2%	-3&-9	-7%	-17%
Cc1nn(CCCC(=O)Nc2sc3c(c2C#N)CCC3)c(C)c1[N+](=O)[O-]	?	2	1%	-3%
CN1CCC(=NNC(=O)c2ccc(N(Cc3ccc(Cl)cc3)S(C)(=O)=O)cc2)CC1	1.6%	1	-7%	3%
Cc1ccc(SCC(=O)c2ccc(CC(=O)O)s2)cc1	2.5%	-4	5%	8%
Cc1ccc2nc3c(cc(C(=O)NCCCn4ccnc4)n3C)c(=O)n2c1	?	?	-40%	?
CCCNC(=S)N(Cc1ccccc1)Cc1nc2ccccc2c(=O)[nH]1	2.5%	1	-5%	3%
COC(=O)c1c(NC(=O)CSc2nnc(CNc3ccc(Cl)cc3)o2)sc(C)c1C	0.7%	-1	6%	-6%
CCOC(=O)c1cc2c(=O)n3cccc(C)c3nc2n(CC(C)C)c1=NC(=O)c1ccco1	?	3	5%	?
CC(C)n1nnnc1SCC(=O)N(C)C1CCS(=O)(=O)C1 (stereo not given)	-1.6%	.	.	1%
O=C1C2C3C=CC(C3)C2C(=O)N1CCCCN1C(=O)C2C3C=CC(C3)C2C1=O (stereo not given)	-0.9%	-2	0%	1%
COC(=O)C1=C(C)OC(N)=C(C#N)C1c1ccco1 (stereo not given)	-0.4%	5	-19%	-21%
N#Cc1ccccc1NC(=O)CSc1n[nH]c(=O)n1C1CC1	1.9%	.	.	0%
O=C(CNS(=O)(=O)c1ccccc1)NCC(=O)OCc1ccccc1F	2.7%	4	-4%	0%
CCc1cc(=O)oc2c(C)c(OS(C)(=O)=O)ccc12	?	.	.	-23%
O=C(c1cccs1)c1cn(CC(=O)N2CCc3ccccc3C2)c2ccccc12	-2.0%	-6	0%	0%
Cc1ccc(Oc2nc(-c3ccccn3)nc3ccccc23)cc1	1.9%	-7	21%	2%
Cc1ccc(-c2nc(N)n(S(=O)(=O)c3ccc(C)cc3)n2)cc1	-4.1%	7	-4%	17%
O=c1cc(CN2CCN(S(=O)(=O)c3cccc(Cl)c3)CC2)c2ccc(O)cc2o1	?	.	.	?
CCOC(=O)C1=C(N)Oc2cc(O)ccc2C1c1cccc([N+](=O)[O-])c1 (stereo not given)	-3.8%	2	21%	-19%
CC(=O)Nc1ccc(S(=O)(=O)N2c3ccccc3NC(=O)CC2C)c(Cl)c1 (stereo not given)	3.2%	5	3%	-6%
O=C(Cn1nnc(-c2ccc(Cl)cc2)n1)NC1CCS(=O)(=O)C1 (stereo not given)	-1.6%	.	.	-4%
Cc1cc(NC(=O)c2cc3cccc([N+](=O)[O-])c3[nH]2)ccc1F	2.6%	-2	5%	-12%
CSc1ncccc1C(=O)Nc1nc(C(C)(C)C)cs1	-1.4%	.	-18%	7%
N#Cc1cccc(NC(=O)Cn2cnc(S(=O)(=O)N3CCCC3)c2)c1	0.3%	.	1%	-12%
COc1ccc(CN2CCN(C(=O)CC(C)C)CC2)cc1Br	-4.7%	.	12%	-15%
CCOC(=O)NC(O)C(=O)c1cccs1 (stereo not given)	-3.6%	2	0%	-10%
COc1ccc(-n2c(SCC(=O)NCc3ccco3)nc3c([nH]c4ccccc43)c2=O)cc1	-0.6%	-1	-3%&1%	-9%
CCOC(=O)c1cnn(-c2cc(Oc3ccccc3C)ncn2)c1N	0.4%	2	-4%	31%
CNS(=O)(=O)c1cccc(C(=O)OCC(=O)Nc2ccc(N3CCCCC3)cc2)c1	-0.1%	3	-17%	18%
COc1ccc(S(=O)(=O)N2CC(O)C[C@H]2C(=O)OCC(=O)N2CCCCCC2)cc1 (stereo not given in full)	1.1%	3	0%	2%
Cc1ccc(NC(=O)COC(=O)Cc2c[nH]c3ccccc23)cc1C	-1.1%	.	.	12%
Cn1c(CCN2CCCCC2)nc2cc(NC(=O)COc3ccccc3)ccc21	-3.4%	.	-5%	-1%
Cc1ccc(S(=O)(=O)N2CCOCC2)cc1NC(=O)COC(=O)c1n[nH]c(=O)c2ccccc12	-1.6%	4	-2%	-19%
COc1ccc(NS(=O)(=O)c2cc(NC(=O)CCNC(=O)c3ccco3)ccc2OC)cc1	0.4%	.	.	6%
C=CCn1c(N/N=C/c2ccc(O)cc2)nc2ccccc2c1=O	3.5%	-9	-41%	15%
Cc1cccc(C(=O)OCC(=O)Nc2nnc(-c3ccccc3)o2)c1O	-0.9%	.	.	4%
CCN(CC(=O)Nc1cc(Cl)ccc1Cl)C(=O)c1ccc(-n2cccn2)cc1	-1.6%	.	.	-1%
CCOC(=O)C(C)Sc1nc2c(c(=O)[nH]c(=O)n2C)n1Cc1ccc(Cl)cc1 (stereo not given)	-0.3%	-17	-18%	-3%
N#CCCn1c(SCC(=O)NCCc2ccc(F)cc2)nc2ccccc21	0.2%	4	-6%	-11%
COc1cc(OC)c(C(=O)OCC(=O)NCCc2ccccc2)cc1OC	-4.2%	3	-7%	23%
COc1cc(C(=O)NCC(=O)NCC(c2ccco2)N2CCCCC2)cc(OC)c1OC (stereo not given)	-2.9%	.	.	1%
CSC1=N/C(=C\c2ccc3c(c2)OCO3)C(=O)S1	-2.3%	2	-2%	-18%
OC(COc1ccc2ccccc2c1Br)Cn1cnc(-c2ccccc2)c1 (stereo not given)	0.5%	-12	-9%	2%
CCOC(=O)c1ccc(NC(=S)NCc2ccco2)cc1	-3.2%	-2	-1%	-4%
COc1ccc(C2CC(c3ccccc3)=NN2c2ccc(C(N)=O)cc2)cc1 (stereo not given)	?	.	-6%	?
COc1ccccc1N1CCN(CC(O)c2ccccc2)CC1 (stereo not given)	3.5%	.	0%	-12%
Next entries follow.
SMILES	Rango-impB inh	GLA inh pH 4.5	miR-21 reporter	Rango release inh
CCCNC(=O)C1CC(c2cccc(F)c2)=NO1 (stereo not given)	0.1%	4	-6%	-23%
COc1ccccc1NC(=O)CSc1nnc(-c2ccncc2)n1CC1CCCO1 (stereo not given)	-0.2%	2	-1%	-1%
O=C(/C=C\c1cccs1)N1CCN(Cc2ccc3c(c2)OCO3)CC1	?	0	-8%	2%
CC(=O)C1=C(C)OC2(O)c3ccccc3C(=O)C12O (stereo not given)	1.2%	2	7%	-8%
OCC(O)CN(c1ccccc1)c1ccccc1 (stereo not given)	-1.1%	-1	-2%	-26%
CCC(=O)Nc1ccc2c(c1)nc1n2CCSC1	-2.0%	13	-31%	13%
CCN(CC)S(=O)(=O)c1cc(C(=O)OCC(=O)NC(=O)c2cccn2C)ccc1C	0.9%	-1	-2%	-20%
CN(/C=C/c1c([N+](=O)[O-])c(=O)n(C)c(=O)n1C)c1ccccc1	1.2%	2	-1%	-14%
COc1ccc(C(=O)NCCCNC(=O)c2cnccn2)cc1	2.8%	.	-3%	8%
COc1ccc(NC(=O)Nc2ccc([N+](=O)[O-])cc2)cn1	?	.	-18%	2%
NC(=S)N1CCCc2ccccc21	-0.5%	3	-7%	-15%
COc1ccc(C2=NN(c3nc4ccccc4s3)C(=O)/C2=C\N(C)C)cc1	-4.9%	0	-20%	-5%
Cc1ccc(C(=O)NC2CCN(C(=O)NC3CCCCC3)CC2)cc1	0.0%	-4	-8%	8%
Clc1ccc(-c2ncc3ccccn23)cc1	?	4	-3%	-1%
CN(Cc1cnc2nc(N)nc(N)c2n1)c1ccc(C(=O)NC(CCC(=O)O)C(=O)O)cc1 (stereo not given)	?	7	.	?
O=C(Cc1ccc([N+](=O)[O-])cc1)N1N=C(C2CC2)CC1(O)C(F)(F)F (stereo not given)	-0.6%	-1	-4%	0%
Cc1cc(C)c(C)c(S(=O)(=O)N2CCC(C(=O)NCCCN3CCCC3=O)CC2)c1C	7.0%	.	.	-9%
Cc1ccc(S(=O)(=O)N2CCCC2)cc1C(=O)NCC(C)(C)N1CCOCC1	-3.4%	.	.	-11%
O=C(CSc1c[nH]c2ccccc12)NC1CCCC1	-2.3%	.	-2%	1%
O=C(Nc1cccnc1)c1ccc(S(=O)(=O)N2CCCCCC2)cc1	0.6%	3	-3%	-7%
CC(C)c1ccc(/C=C(\NC(=O)c2ccccc2)C(=O)NCCCn2ccnc2)cc1	0.1%	.	-2%	-24%
CCc1nc(Nc2ccccc2)c2nnn(Cc3ccccc3)c2n1	4.0%	.	-5%	-9%
COc1cc(Br)cc(/C=N/N(CCO)C2=NS(=O)(=O)c3ccccc32)c1OC	2.7%	.	-14%	-11%
COc1ccccc1-c1nnc(SCC(=O)Nc2ccc(S(N)(=O)=O)cc2)n1N	-0.5%	0	-4%	20%
Cc1ccc(NC(=O)CCn2c(=O)oc3ccccc32)c(C)c1	1.6%	-1	-6%	-19%
CC(=O)Nc1ccc(Nc2cc(C)nc(Nc3ccc(NC(C)=O)cc3)n2)cc1	-3.8%	.	.	7%
COC(=O)CC1COc2ccccc2N1S(=O)(=O)c1ccc(Br)cc1 (stereo not given)	-1.0%	.	1%	6%
CCCCc1cc(=O)oc2cc(C)cc(OCC(=O)N3CCC(C(N)=O)CC3)c12	-3.8%	.	-6%	14%
COc1ccccc1CNC(=O)C(=O)NCC1OCCN1S(=O)(=O)c1ccc(Br)cc1 (stereo not given)	0.0%	.	-1%	-5%
NS(=O)(=O)c1cccc(NC(=O)COc2ccc([N+](=O)[O-])cc2)c1	-3.3%	1	-5%	1%
CCOc1ccc(S(=O)(=O)c2c(C(=O)c3ccccc3)cnc3cc4c(cc23)OCCO4)cc1	?	-5	-23%	-17%

Some of the entries so far, as labelled records:
> CCc1cc(=O)oc2c(C)c(OS(C)(=O)=O)ccc12
  Rango-impB inh: ? | GLA inh pH 4.5: . | miR-21 reporter: . | Rango release inh: -23%

> CC(=O)Nc1ccc(Nc2cc(C)nc(Nc3ccc(NC(C)=O)cc3)n2)cc1
  Rango-impB inh: -3.8% | GLA inh pH 4.5: . | miR-21 reporter: . | Rango release inh: 7%

> CC(C)n1nnnc1SCC(=O)N(C)C1CCS(=O)(=O)C1 (stereo not given)
  Rango-impB inh: -1.6% | GLA inh pH 4.5: . | miR-21 reporter: . | Rango release inh: 1%

> O=C(CCNS(=O)(=O)c1ccccc1C(F)(F)F)N1CCN(C(c2ccccc2)c2ccccc2)CC1
  Rango-impB inh: 0.2% | GLA inh pH 4.5: . | miR-21 reporter: . | Rango release inh: 2%

Bioassay records: PubChem BioAssay, National Center for Advancing Translational Sciences (NCATS)
